Beta2AR agonist – human beta-2 adrenergic receptor agonism by FAP; P07550; Am2.2-beta2AR cells, FAP receptor internalization, flow cytometry; reference of the scale not given here; response, % (no concentration beside the values); 340,000 tested, 0.43% active; AID 504454;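 active means response above a set limit, near 3 SD of response in nonfluorescent compounds, cut at about 42% in these data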;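 further: stock transfer was 100 nL into about 11 µL; a reference agonist was the positive control; negative values mostly stem from fluorescent compounds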
Target sequence (P07550 whole entry, looked up): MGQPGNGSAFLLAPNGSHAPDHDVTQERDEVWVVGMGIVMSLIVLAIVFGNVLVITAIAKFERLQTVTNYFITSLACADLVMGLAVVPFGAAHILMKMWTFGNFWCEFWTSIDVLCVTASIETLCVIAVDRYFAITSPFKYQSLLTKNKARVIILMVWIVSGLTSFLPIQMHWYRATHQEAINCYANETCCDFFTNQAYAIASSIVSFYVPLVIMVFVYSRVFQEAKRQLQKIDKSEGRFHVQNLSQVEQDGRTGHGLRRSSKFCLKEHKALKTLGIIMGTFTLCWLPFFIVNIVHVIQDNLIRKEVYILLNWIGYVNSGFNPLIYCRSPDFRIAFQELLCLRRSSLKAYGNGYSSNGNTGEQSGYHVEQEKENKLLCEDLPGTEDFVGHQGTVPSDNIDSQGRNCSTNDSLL
UCH37 inh – human UCH37 deubiquitinating enzyme inhibition. Q9Y5K5. purified proteasome/UCH37, Ub-AMC cleavage fluorescence. inhibition, % (test concentration not listed). 330,000 tested, 0.33% active. AID 588478;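 active means mean of two replicates above 20%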;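 further: 0% = compound-free wells with enzyme and 100% = wells lacking proteasome; stock transfer was 100 nL into about 20 µL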
Target sequence (Q9Y5K5 whole entry, looked up): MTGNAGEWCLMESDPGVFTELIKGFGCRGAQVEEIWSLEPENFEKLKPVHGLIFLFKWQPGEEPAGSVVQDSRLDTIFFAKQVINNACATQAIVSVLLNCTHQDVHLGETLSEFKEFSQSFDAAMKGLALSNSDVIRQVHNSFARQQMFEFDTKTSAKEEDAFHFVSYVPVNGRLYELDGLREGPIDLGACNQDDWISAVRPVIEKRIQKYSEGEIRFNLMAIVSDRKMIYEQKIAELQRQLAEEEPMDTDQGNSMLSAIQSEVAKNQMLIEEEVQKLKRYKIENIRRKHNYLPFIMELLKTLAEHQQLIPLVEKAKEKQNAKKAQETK
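Material: Human UCH37 enzyme supplied as purified proteasome complex | Schedule: 30 min compound-proteasome preincubation then 25 min substrate reaction, room temperature | Detection: AMC fluorescence from Ub-AMC cleavage, excitation 355 nm, emission 460 nm | Benchmarks: Wells without proteasome as full block, compound-free enzyme plus substrate as uninhibited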
Calb FLC – C. albicans growth modulation with fluconazole; 300,000 tested, 0.57% active; C. albicans CaCi-2 (fluconazole-resistant clinical isolate) + fluconazole, Alamar Blue growth, 48 h; growth inhibition, % (no concentration beside the values); AID 1979;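 active means most replicates above 75%; inconclusive means exactly half above 75%; inactive means most below 75%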;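 further: all wells also contain fluconazole at 8 µg/ml as a sub-toxic cotreatment; 0% = median of DMSO wells and 100% = median of geldanamycin control wells; wells of about 8 µL received 7.5 nL stock; the first replicate is given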
A1 inh – inhibitors of the anti-apoptotic protein A1, read as caspase activation. MEF A1-2A-BIM cells, Caspase-Glo 3/7 luminescence, 3 h; percent of clofoctol response, vehicle zero. caspase activation, % (concentration not given with the values). 330,000 tested, 0.066% active;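 active means over half of replicate activation scores above 10%, or exactly half above 10 with the replicate mean above 10; inconclusive means replicate mean below 10 yet half the replicates above 10; inactive means over half of replicates below 10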;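 further: wells of about 30 µL received 50 nL stock; many hits fall short of the cut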
RanGTP-Imp inh – disruptors of Ran-importin-beta complex formation – biochemical, FRET, CFP-Ran, YFP-importin-beta, homogeneous, primary screen; cell-free CFP-Ran/YFP-importin-beta FRET ratio; inhibition, % (test concentration not listed); 300,000 tested, 1.1% active;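 active means most replicates above 15%; inconclusive means exactly half above 15%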;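 further: 0% = DMSO wells and 100% = Ran loaded with GDP instead of GTP; wells of about 40 µL received 100 nL stock; the first replicate is given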
Beta cell apopt – blocks beta cell apoptosis | INS-1E cytokine-induced death, ATP luminescence, 48 h; percent of positive-control rescue, neutral wells zero | protection from apoptosis, % (no concentration beside the values) | 300,000 tested, 0.8% active | AID 435005;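 active means all replicates at 75% or more, or half of them and the mean; inconclusive means half reach 75% but not the mean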;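 further: 0% = cytokine-treated negative control wells and 100% = positive control rescue; higher means more ATP so stronger rescue from cytokine killing; wells of about 40 µL received 100 nL stock; the first replicate is given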
T cruzi inh – T. cruzi replication inhibition; 300,000 tested, 1.4% active; T. cruzi beta-gal in NIH3T3, luminescence, 90 h; inhibition, % (test concentration not listed);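 active means mean inhibition across valid replicates above about 55%, limit read from the data; inconclusive means mean below that limit but half or more replicates reach it; inactive means mean below it, under half of replicates reach it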;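 further: signal also drops with host cell toxicity which is not excluded here; 0% = plate median of DMSO wells and 100% = zero luminescence signal; higher percent means less beta-gal luminescence so fewer parasites; stock transfer was 50 nL into about 50 µL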
LANA-H2B inh – blocks KSHV LANA binding to histone H2A/H2B; Q9QR71; cell-free LANA-H2A/H2B peptide, fluorescence polarization; inhibition, % (no concentration beside the values); 320,000 tested, 0.6% active; in the data active means inhibition mostly above about 10%, no sharp cut-off; inactive means mostly below about 6.7%;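 further: stock transfer was 7.5 nL into about 10 µL; 0% = median of vehicle wells and 100% = median of positive control wells; one replicate is shown; the record names a cut of 25% in any replicate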
* marks the source's active call; other numbers are inactive results. Outcome played no part in choosing rows; 4.3% or so of the library scored in one or more.

What do the screens show for `Cc1ccc(C(=O)N/N=C(\CC(C)C)c2ccccc2)cc1`?
Beta2AR agonist: 1; Calb FLC: -2; A1 inh: -1.3; RanGTP-Imp inh: -1.5; Beta cell apopt: 2; T cruzi inh: -6; LANA-H2B inh: -1.1

Results for CCOC(=O)/C(=C\c1ccc(Cl)cc1)c1nc2sc(C)c(C)c2c(=O)[nH]1 ?
Beta2AR agonist: 51*; UCH37 inh: -11; Calb FLC: 30; A1 inh: 1.7; RanGTP-Imp inh: -2.1; Beta cell apopt: -26; T cruzi inh: -2; LANA-H2B inh: 1.6

Results for CCN(CC)S(=O)(=O)c1cc(C(=O)Nc2cc(C)on2)ccc1Cl ?
Beta2AR agonist: 1; UCH37 inh: 1.1; Calb FLC: 7; A1 inh: 0.7; RanGTP-Imp inh: 0.0; T cruzi inh: 2; LANA-H2B inh: -1.4

What do the screens show for `CCc1ccccc1NC(=O)CN(C)C(=O)CSc1nn(-c2ccc(F)cc2)c(=S)s1`?
Beta2AR agonist: -3; UCH37 inh: 1.1; Calb FLC: -4; A1 inh: -0.2; RanGTP-Imp inh: -1.2; Beta cell apopt: -9; T cruzi inh: -12; LANA-H2B inh: -5.6

What do the screens show for `O=C(c1ccc(S(=O)(=O)c2ccc(F)cc2)c([N+](=O)[O-])c1)N1CCCCCC1`?
Beta2AR agonist: -8; UCH37 inh: 1.7; Calb FLC: 7; A1 inh: 0.0; RanGTP-Imp inh: -0.1; Beta cell apopt: 41; T cruzi inh: -24; LANA-H2B inh: 4.7

What do the screens show for `CCOC(=O)C1CCCN(CC(=O)Nc2c(C(=O)OC)[nH]c3ccc(Br)cc23)C1` (stereo not given)?
Beta2AR agonist: -2; UCH37 inh: 0.0; Calb FLC: 29; A1 inh: 0.6; RanGTP-Imp inh: -4.4; Beta cell apopt: 12; T cruzi inh: 1; LANA-H2B inh: -0.8

Results for CCCN(CCC)S(=O)(=O)c1cc(Br)cc2c1N(C(=O)CC)CC2 ?
Beta2AR agonist: -14; UCH37 inh: 2.6; Calb FLC: -2; A1 inh: -1.6; RanGTP-Imp inh: 1.3; Beta cell apopt: -4; T cruzi inh: 49; LANA-H2B inh: 1.0

Results for CCOc1ccccc1N(CC(=O)NC1CCCC1)C(=O)CNC(=O)c1cccs1 ?
Beta2AR agonist: -8; UCH37 inh: 0.9; Calb FLC: -1; A1 inh: 0.3; RanGTP-Imp inh: inconclusive; Beta cell apopt: 1; T cruzi inh: -5; LANA-H2B inh: -3.1

Results for CCC(CC)NC(=O)c1ccc(Cl)cc1 ?
Beta2AR agonist: -6; UCH37 inh: 6.3; Calb FLC: -1; A1 inh: 1.0; RanGTP-Imp inh: 0.9; T cruzi inh: -6; LANA-H2B inh: -1.4

How did Cc1cccc(C)c1NC(=O)CS(=O)CC(=O)NCC1OCCc2ccccc21 (stereo not given) do in these assays?
Beta2AR agonist: 7; UCH37 inh: 0.2; Calb FLC: -1; A1 inh: -0.1; RanGTP-Imp inh: 0.6; Beta cell apopt: 0; T cruzi inh: -1; LANA-H2B inh: 3.2

How did CC(C)C[C@H](NC(=O)NCc1ccc(Cl)cc1)C(=O)O do in these assays?
Beta2AR agonist: 6; UCH37 inh: 4.7; Calb FLC: -3; A1 inh: 0.1; RanGTP-Imp inh: 0.9; Beta cell apopt: -3; T cruzi inh: -7; LANA-H2B inh: -0.1

How did O=C1C(c2ccc(F)cc2)N(C2CCCCC2)C(=O)CN1C1CCCC1 (stereo not given) do in these assays?
Beta2AR agonist: -1; UCH37 inh: 1.5; Calb FLC: 7; A1 inh: -0.2; RanGTP-Imp inh: 1.5; Beta cell apopt: -3; T cruzi inh: 1; LANA-H2B inh: -0.3

How did CC(C)C(c1nnnn1Cc1cccs1)N1CCN(C(=O)c2ccco2)CC1 (stereo not given) do in these assays?
Beta2AR agonist: 0; UCH37 inh: 0.2; Calb FLC: 14; A1 inh: 0.1; RanGTP-Imp inh: 4.0; Beta cell apopt: 1; T cruzi inh: -12; LANA-H2B inh: 5.4

How did CC1Cc2ccccc2N1C(=O)COc1cccc(-n2cnnn2)c1 (stereo not given) do in these assays?
Beta2AR agonist: -1; UCH37 inh: 0.2; Calb FLC: -5; A1 inh: 0.2; RanGTP-Imp inh: 6.1; Beta cell apopt: 3; T cruzi inh: -1; LANA-H2B inh: -0.4

How did O=C(c1cn(Cc2ccccc2)nc1-c1cccnc1)N1CCN(Cc2c(F)cccc2Cl)CC1 do in these assays?
Beta2AR agonist: -5; UCH37 inh: 1.2; A1 inh: 0.4; Beta cell apopt: -11

Results for CO/N=C/c1cc([N+](=O)[O-])ccc1Sc1ccc(C)cc1 ?
Beta2AR agonist: 16; Calb FLC: 8; A1 inh: -0.8; RanGTP-Imp inh: 2.0; Beta cell apopt: 9; T cruzi inh: 13; LANA-H2B inh: -1.2

What do the screens show for `Cc1nonc1NC(=O)c1ccc(Cl)c(S(=O)(=O)N2CCCCC2)c1`?
Beta2AR agonist: -13; UCH37 inh: 0.8; A1 inh: 0.2; RanGTP-Imp inh: 7.9; Beta cell apopt: -5; T cruzi inh: 4; LANA-H2B inh: -1.9

How did COC(=O)COc1ccccc1C(=O)Nc1ccc(OC)cc1 do in these assays?
Beta2AR agonist: 5; UCH37 inh: 4.5; Calb FLC: -6; A1 inh: 0.4; Beta cell apopt: 10; T cruzi inh: 9; LANA-H2B inh: -5.7

Results for CCN(Cc1ccccc1)S(=O)(=O)c1cn(C)cn1 ?
Beta2AR agonist: -4; UCH37 inh: 4.3; Calb FLC: -3; A1 inh: 1.7; RanGTP-Imp inh: 6.6; Beta cell apopt: -1; T cruzi inh: -16; LANA-H2B inh: -2.2

How did C=CCOc1c(CNC2CCCC2)cc(Cl)cc1OC do in these assays?
Beta2AR agonist: 1; UCH37 inh: 0.8; Calb FLC: -8; A1 inh: -0.2; RanGTP-Imp inh: 9.7; Beta cell apopt: -12; T cruzi inh: -3; LANA-H2B inh: 0.7

What do the screens show for `CCOC(=O)c1ccc(NS(=O)(=O)c2cc3c4c(c2)CCN4C(=O)CC3)cc1`?
Beta2AR agonist: 5; UCH37 inh: -2.0; Calb FLC: -3; A1 inh: 0.1; RanGTP-Imp inh: -3.5; Beta cell apopt: 2; T cruzi inh: 2; LANA-H2B inh: 1.7

How did COc1ccc(-c2csc(NC(=O)CC(C)C)n2)cc1 do in these assays?
Beta2AR agonist: -8; UCH37 inh: 2.2; A1 inh: -0.4; RanGTP-Imp inh: -2.1; Beta cell apopt: 2; T cruzi inh: -2; LANA-H2B inh: -2.9

What do the screens show for `CCC(C(=O)NC1CCCCC1)n1c(SCc2cccc(C)c2)nc2ccncc21` (stereo not given)?
Beta2AR agonist: -21; UCH37 inh: 3.6; Calb FLC: -1; RanGTP-Imp inh: 5.7; Beta cell apopt: 9; T cruzi inh: -1; LANA-H2B inh: 2.6

What do the screens show for `NS(=O)(=O)c1ccc(NC(=O)C2C3C=CC(C3)C2C(=O)O)cc1` (stereo not given)?
Beta2AR agonist: -2; UCH37 inh: 1.0; Calb FLC: -3; A1 inh: -0.1; RanGTP-Imp inh: 2.7; Beta cell apopt: -8; T cruzi inh: 0; LANA-H2B inh: 4.9

Results for CCC(C)NC(=O)Cn1c(=O)sc2ccccc21 (stereo not given) ?
Beta2AR agonist: -1; UCH37 inh: 4.2; Calb FLC: -3; A1 inh: -0.1; RanGTP-Imp inh: -0.7; Beta cell apopt: -6; T cruzi inh: -4; LANA-H2B inh: -19

Results for Cn1c(=O)cc(SCC(=O)NCC2CCCO2)c2ccc(Cl)cc21 (stereo not given) ?
Beta2AR agonist: -13; UCH37 inh: -0.5; Calb FLC: 8; A1 inh: -0.2; RanGTP-Imp inh: -0.7; Beta cell apopt: -3; T cruzi inh: 8; LANA-H2B inh: -3.2

How did O=C(COC(=O)CC12CC3CC(CC(Br)(C3)C1)C2)NC(=O)NCc1ccco1 do in these assays?
Beta2AR agonist: -12; UCH37 inh: 5.0; Calb FLC: -1; A1 inh: 0.7; RanGTP-Imp inh: 1.4; Beta cell apopt: -5; T cruzi inh: -10; LANA-H2B inh: -1.9

Results for CC1(C)Cc2c(sc(NC(=O)c3ccccc3Cl)c2C(=O)O)CO1 ?
Beta2AR agonist: -3; UCH37 inh: 2.2; Calb FLC: inconclusive; A1 inh: -0.3; RanGTP-Imp inh: -0.6; T cruzi inh: 8; LANA-H2B inh: 4.9

How did CCOc1ccc(C(=O)N2CCn3c2nc2ccccc23)cc1 do in these assays?
Beta2AR agonist: -13; UCH37 inh: 5.2; Calb FLC: 0; A1 inh: -2.9; RanGTP-Imp inh: 6.3; Beta cell apopt: 3; T cruzi inh: -4; LANA-H2B inh: -1.8

Results for COc1cccc(/C=N/Nc2nn3cnnc3c3ccccc23)c1O ?
Beta2AR agonist: 4; Calb FLC: 1; A1 inh: -0.5; RanGTP-Imp inh: -4.0; Beta cell apopt: 16; T cruzi inh: -15; LANA-H2B inh: -3.5

Results for CC1CCCC(C)N1C(=O)COc1ccc([N+](=O)[O-])cc1Cl (stereo not given) ?
Beta2AR agonist: -8; UCH37 inh: 1.9; Calb FLC: -7; A1 inh: 0.1; RanGTP-Imp inh: 1.8; Beta cell apopt: 0; T cruzi inh: -2; LANA-H2B inh: 5.9

Results for CNC(=O)c1ccc(Nc2nnc(-c3ccc(C(N)=O)cc3)c3ccccc23)cc1 ?
Beta2AR agonist: -7; UCH37 inh: -36; Calb FLC: -2; A1 inh: 1.3; RanGTP-Imp inh: -1.5; Beta cell apopt: -7; T cruzi inh: -8; LANA-H2B inh: 0.8

How did Cc1cc(=O)[nH]c(SCC(=O)Nc2ccc(C(=O)O)cc2)n1 do in these assays?
Beta2AR agonist: 10; UCH37 inh: 5.7; Calb FLC: -4; A1 inh: -0.4; RanGTP-Imp inh: -4.3; Beta cell apopt: -5; T cruzi inh: -5; LANA-H2B inh: 5.8

What do the screens show for `CN1C(=O)/C(=C2\SC(N)=NC2=O)c2ccccc21`?
Beta2AR agonist: 11; Calb FLC: 0; A1 inh: 0.1; RanGTP-Imp inh: -0.1; Beta cell apopt: 1; T cruzi inh: -3; LANA-H2B inh: 2.5

How did COc1ccc(NC(=S)NC23CN4CN(CN(C4)C2)C3)c(OC)c1 do in these assays?
Beta2AR agonist: 4; UCH37 inh: -0.6; Calb FLC: 1; A1 inh: 0.7; RanGTP-Imp inh: 4.3; Beta cell apopt: -8; T cruzi inh: -12; LANA-H2B inh: -1.2

Results for O=C(Cc1cscn1)c1ccc(O)cc1O ?
UCH37 inh: 9.8; A1 inh: -0.1; Beta cell apopt: -1; LANA-H2B inh: 2.8

Compounds from the list above that have a furan ring, fused or not, in the order listed:
How did CC(C)C(c1nnnn1Cc1cccs1)N1CCN(C(=O)c2ccco2)CC1 (stereo not given) do in these assays?
Beta2AR agonist: 0; UCH37 inh: 0.2; Calb FLC: 14; A1 inh: 0.1; RanGTP-Imp inh: 4.0; Beta cell apopt: 1; T cruzi inh: -12; LANA-H2B inh: 5.4

How did O=C(COC(=O)CC12CC3CC(CC(Br)(C3)C1)C2)NC(=O)NCc1ccco1 do in these assays?
Beta2AR agonist: -12; UCH37 inh: 5.0; Calb FLC: -1; A1 inh: 0.7; RanGTP-Imp inh: 1.4; Beta cell apopt: -5; T cruzi inh: -10; LANA-H2B inh: -1.9

Bioassay records from PubChem.
